Screening results as filed in PubChem BioAssay.
MITF inhib = MITF inhibition; TRPM1 promoter luciferase, luminescence, 24 h; inhibition, % (no concentration beside the values); 0.28% of 37,000 active; AID 2240;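 active = most replicates at 85% or more, or half of them and the mean; inconclusive = half reach 85% but not the mean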;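 also: human melanocyte line stably carrying TRPM1 promoter luciferase reporter; 0% = vehicle wells and 100% = a positive control; the first replicate is given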
YB-1 expr inh = YB-1 expression inhibition | U2OS, qRT-PCR YB-1 vs CDIP delta delta Cp, 16 h; hits give high values; zero = DMSO, each unit about twofold | AID 434959 | 0.37% of 30,000 active | delta delta Cp (YB-1 minus CDIP) (test concentration not listed);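 active = delta delta Cp rounded down to an integer at or above 3, about 3 SD of DMSO wells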;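 also: higher means less YB-1 transcript or more CDIP transcript relative to DMSO; stock transfer was 100 nL into about 100 µL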
Hedgehog inh = Sonic Hedgehog pathway inhibition; Shh-LIGHT2 Gli-luciferase reporter, 30 h; inhibition, % (concentration not given with the values); 2.1% of 22,000 active; AID 2313;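 active = replicate mean of 65% or more; inconclusive = mean lower but half the replicates past it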;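 also: pathway switched on by Shh-conditioned medium diluted 1 in 25 in low serum; 100 nL library stock added to about 40 µL; 0% = median of neutral wells and 100% = positive control level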
PD-1 reverse act = reversal of PD-1 mediated T-cell inhibition | primary human CD4 T cells, PD-L1 beads, CellTiter-Glo 96 h | activation, % (no concentration beside the values) | 29,000 tested, under 10 active | AID 2316;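 active = replicate mean of 50% or more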;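 also: 0% = median vehicle wells and 100% = positive control; 100 nL library stock added to about 50 µL; numbers are from one replicate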
* marks the source's active call; other numbers are inactive results; ? = inconclusive; nt = not tested or not shown. An excerpt; the hit share may differ from the screen's.

Every second line gives: MITF inhib, YB-1 expr inh, Hedgehog inh, PD-1 reverse act
#1 Cc1ccc(S(=O)(=O)N(C)C[C@H]2Oc3ccc(NC(=O)Nc4cccc5ccccc45)cc3C(=O)N([C@@H](C)CO)C[C@H]2C)cc1
→ 18, -0.14, 37, -0.2
#2 Cc1ccc(S(=O)(=O)Nc2cccc3c2O[C@@H](CN(C)Cc2ccccc2)[C@@H](C)CN([C@H](C)CO)C3=O)cc1
→ -2, -0.15, 26, -0.1
#3 COc1ccc(S(=O)(=O)Nc2ccc3c(c2)C(=O)N([C@H](C)CO)C[C@@H](C)[C@H](CN(C)CC2CCCCC2)O3)cc1
→ 0, -0.21, nt, nt
#4 CC(=O)Nc1nc(C23CC4CC(CC(C4)C2)C3)cs1
→ -19, 0.38, nt, 0.0
#5 C[C@H]1CN([C@@H](C)CO)C(=O)c2cc(NS(=O)(=O)c3ccccc3)ccc2O[C@@H]1CN(C)Cc1ccc(C(=O)Nc2ccccc2N)cc1
→ -2, 0.097, nt, -0.6
#6 CCN(CC)C(=S)CSc1nc(-c2ccccc2)cc(-c2ccco2)c1C#N
→ 10, -0.97, -28, -0.2
#7 C[C@@H]1CN([C@@H](C)CO)C(=O)c2cccc(NC(=O)Nc3ccc4c(c3)OCO4)c2O[C@H]1CN(C)Cc1ccc(C(=O)Nc2ccccc2N)cc1
→ 4, 0.072, nt, -2.3
#8 C[C@H](CO)N1C[C@H](C)[C@@H](CN(C)Cc2ccc(C(=O)O)cc2)Oc2ccc(NS(=O)(=O)c3cn(C)cn3)cc2C1=O
→ 1, -0.11, 9, 1.7
#9 Cc1noc(C)c1S(=O)(=O)N(C)C[C@H]1OCCCC[C@@H](C)Oc2ccc(NS(=O)(=O)c3ccccc3)cc2C(=O)N([C@H](C)CO)C[C@@H]1C
→ 6, -0.21, -9, -1.0
#10 Cc1ccc([N+](=O)[O-])cc1NC(=O)CN(c1ccc(I)cc1)S(C)(=O)=O
→ 16, nt, nt, -0.4
#11 CC(C(=O)O)c1ccc(-c2ccccc2)c(F)c1 (stereo not given)
→ 3, 0.11, -17, 4.0
#12 C[C@@H]1CN([C@@H](C)CO)C(=O)c2cc(NS(=O)(=O)c3ccc(F)cc3)ccc2O[C@@H]1CN(C)Cc1ccccc1
→ -1, -0.038, nt, nt
#13 CN1CCN(CC(=O)N2c3ccccc3C(=O)Nc3cccnc32)CC1
→ -2, 0.61, 47, 3.9
#14 N#Cc1c(C(F)(F)F)cc(-c2ccco2)nc1SCc1ccccn1
→ -20, nt, nt, 0.6
#15 COC(=O)c1c(NC(=O)c2ccc(N(C)S(=O)(=O)c3ccccc3)cc2)sc2c1CCCC2
→ 2, nt, nt, 2.3
#16 C[C@@H]1CN([C@H](C)CO)C(=O)c2cc(NS(C)(=O)=O)ccc2O[C@@H]1CN(C)Cc1ccc(C(F)(F)F)cc1
→ -5, -0.17, 0, 0.8
#17 C[C@@H]1CN([C@H](C)CO)C(=O)c2cc(NC(=O)Cn3cnnn3)ccc2O[C@H]1CN(C)S(C)(=O)=O
→ -1, 0.3, -35, nt
#18 C[C@H]1CN([C@@H](C)CO)C(=O)c2cc(NC(=O)Nc3ccc4c(c3)OCO4)ccc2O[C@H]1CN(C)C(=O)Nc1ccc2c(c1)OCO2
→ -4, -0.24, 1, 0.9
#19 C[C@@H]1CN([C@H](C)CO)C(=O)c2cccc(NC(=O)Nc3cccc4ccccc34)c2O[C@@H]1CN(C)CC1CCCCC1
→ 3, -0.43, 13, -0.5
#20 N#CCC(=O)NCc1cccs1
→ 15, -0.75, -14, -0.3
#21 COc1ccc(NC(=O)N(C)C[C@H]2Oc3ccc(NC(=O)C4CCCCC4)cc3C(=O)N([C@@H](C)CO)C[C@@H]2C)cc1
→ -8, 0.15, -31, -1.1
#22 Cc1ccc(S(=O)(=O)Nc2cccc3c2O[C@H](CN(C)Cc2ccc(C(=O)O)cc2)[C@@H](C)CN([C@H](C)CO)C3=O)cc1
→ 4, -0.004, 7, 2.3
#23 CC(C)NC(=O)N(C)C[C@H]1OCCCC[C@@H](C)Oc2ccc(NC(=O)Nc3cccc4ccccc34)cc2C(=O)N([C@H](C)CO)C[C@@H]1C
→ -22, -0.16, nt, -0.3
#24 COc1ccc(NC(=O)Nc2cccc3c2O[C@@H](CN(C)C(=O)NC(C)C)[C@@H](C)CN([C@H](C)CO)C3=O)cc1
→ -1, 0.025, -9, 0.0
#25 Cc1ccc(S(=O)(=O)N(C)C[C@@H]2Oc3c(NC(=O)c4cc(C)nn4C)cccc3C(=O)N([C@H](C)CO)C[C@@H]2C)cc1
→ -43, -0.36, 36, -0.1
#26 COC(=O)C1=CO[C@@H](OC2OC(O)C(O)C(O)C2CO)[C@H]2[C@@H]1C=CC21C=C([C@H](C)O)C(=O)O1 (stereo not given in full)
→ 13, -0.45, -35, -1.0
#27 CNC[C@@H]1Oc2c(NC(=O)Nc3ccc(OC)cc3)cccc2C(=O)N([C@@H](C)CO)C[C@@H]1C
→ -3, -0.19, -22, 1.0
#28 C[C@@H]1CN([C@@H](C)CO)C(=O)c2cc(NC(=O)CCCN(C)C)ccc2O[C@@H]1CN(C)C
→ 1, 0.33, -19, 0.9
#29 C[C@@H]1CN([C@@H](C)CO)C(=O)c2cc(NC(=O)NC3CCCCC3)ccc2O[C@@H]1CN(C)C(=O)Nc1ccccc1
→ 2, 0.034, -29, 0.4
#30 C[C@H](CO)N1C[C@H](C)[C@@H](CN(C)S(=O)(=O)c2cccs2)Oc2ccc(NS(=O)(=O)c3cccs3)cc2C1=O
→ -14, -0.28, -18, -0.9
#31 C[C@H](CO)N1C[C@H](C)[C@@H](CN(C)C(=O)Nc2cccc3ccccc23)Oc2c(NC(=O)Nc3ccc(F)cc3)cccc2C1=O
→ 0, -0.43, 80*, 0.2
#32 C[C@@H]1CN([C@H](C)CO)C(=O)Cc2cc(NC(=O)Nc3ccc(C(F)(F)F)cc3)ccc2O[C@H]1CN(C)Cc1ccc(C(=O)Nc2ccccc2N)cc1
→ -5, -0.23, nt, -1.5
#33 CC1CCC(O)C2C=CC(C)(O)C(C)(C(=O)CCO)C12 (stereo not given)
→ -6, -0.2, 19, -0.3
#34 COc1ccc(NC(=O)Nc2ccc3c(c2)C(=O)N([C@@H](C)CO)C[C@H](C)[C@H](CN(C)Cc2ccccc2)O3)cc1
→ -5, 0.02, 7, -1.7
#35 C[C@H]1CN([C@@H](C)CO)C(=O)Cc2cc(NC(=O)CCCCCC(=O)Nc3ccccc3N)ccc2O[C@@H]1CN(C)CC1CCCCC1
→ -11, -0.19, nt, 0.1
#36 Cc1ccc(S(=O)(=O)N2Cc3ccccc3C(C)CC23CCCCC3)cc1 (stereo not given)
→ -6, 0.31, -39, -0.2
#37 Cc1noc(C)c1S(=O)(=O)N(C)C[C@H]1Oc2ccc(NC(=O)CCCN(C)C)cc2C(=O)N([C@H](C)CO)C[C@H]1C
→ -10, -0.17, nt, 1.0
#38 N#CCC(c1ccccc1)c1ccccc1
→ 6, -0.12, nt, -0.7
#39 Cc1ccc(S(=O)(=O)Nc2ccc3c(c2)C(=O)N([C@@H](C)CO)C[C@H](C)[C@H](CN(C)C(=O)Nc2c(C)noc2C)O3)cc1
→ 2, 0.28, -29, -0.5
#40 C[C@@H]1CN([C@H](C)CO)C(=O)c2cccc(NC(=O)C3CCOCC3)c2O[C@H]1CN(C)CC1CC1
→ -1, -0.27, -10, 1.2
#41 COc1ccc(OCC(=O)Nc2cc(-c3nc4ccccc4o3)ccc2C)cc1
→ -17, nt, nt, -1.5
#42 C[C@H]1CN([C@@H](C)CO)C(=O)c2cccc(NC(=O)Nc3ccc(F)cc3)c2O[C@@H]1CN(C)C(=O)NC1CCCCC1
→ -10, -0.15, 21, -0.1
#43 C[C@H]1CN([C@@H](C)CO)C(=O)c2cccc(NC(=O)c3ccncc3)c2O[C@@H]1CN(C)Cc1ccncc1
→ 3, 0.16, -43, 2.2
#44 O=C(COc1ccc(Br)cc1)Nc1cccc(NC(=O)c2ccc(Cl)cc2Cl)c1
→ -1, nt, nt, 0.5
#45 C[C@H](CO)N1C[C@H](C)[C@@H](CN(C)Cc2ccc(C(=O)O)cc2)Oc2c(NC(=O)c3nc4ccccc4s3)cccc2C1=O
→ 12, -0.0045, 28, -1.3
#46 C[C@H]1CN([C@@H](C)CO)C(=O)Cc2cc(NC(=O)Nc3ccccc3)ccc2O[C@H]1CN(C)C(=O)Nc1ccc(F)cc1
→ -9, -0.099, -4, nt
#47 O=C(COc1ccc([N+](=O)[O-])cc1)Nc1ccccc1-c1nc2ccccc2s1
→ -1, nt, nt, -1.3
#48 Cc1noc(C)c1NC(=O)N(C)C[C@@H]1Oc2ccc(NC(=O)Cc3ccccc3)cc2C(=O)N([C@H](C)CO)C[C@@H]1C
→ -3, -0.26, -24, -0.6
#49 COc1ccc(NC(=O)Nc2cccc3c2O[C@@H](CN(C)C(=O)Nc2ccc4c(c2)OCO4)[C@@H](C)CN([C@H](C)CO)C3=O)cc1
→ -3, -0.53, -14, -1.6
#50 C=C(C(=O)O)C1CCC2(C)CCCC(C)(O)C2C1 (stereo not given)
→ 2, 0.37, -31, -0.1

Some of the entries so far, tab-delimited:
No.	mol	MITF inhib	YB-1 expr inh	Hedgehog inh	PD-1 reverse act
1	Cc1ccc(S(=O)(=O)N(C)C[C@H]2Oc3ccc(NC(=O)Nc4cccc5ccccc45)cc3C(=O)N([C@@H](C)CO)C[C@H]2C)cc1	18	-0.14	37	-0.2
2	Cc1ccc(S(=O)(=O)Nc2cccc3c2O[C@@H](CN(C)Cc2ccccc2)[C@@H](C)CN([C@H](C)CO)C3=O)cc1	-2	-0.15	26	-0.1
3	COc1ccc(S(=O)(=O)Nc2ccc3c(c2)C(=O)N([C@H](C)CO)C[C@@H](C)[C@H](CN(C)CC2CCCCC2)O3)cc1	0	-0.21	nt	nt
4	CC(=O)Nc1nc(C23CC4CC(CC(C4)C2)C3)cs1	-19	0.38	nt	0.0
5	C[C@H]1CN([C@@H](C)CO)C(=O)c2cc(NS(=O)(=O)c3ccccc3)ccc2O[C@@H]1CN(C)Cc1ccc(C(=O)Nc2ccccc2N)cc1	-2	0.097	nt	-0.6
6	CCN(CC)C(=S)CSc1nc(-c2ccccc2)cc(-c2ccco2)c1C#N	10	-0.97	-28	-0.2

Next section.
Every second line gives: MITF inhib, YB-1 expr inh, Hedgehog inh, PD-1 reverse act
#51 CC(C)NC(=O)Nc1cccc2c1O[C@H](CN(C)Cc1ccc(C(F)(F)F)cc1)[C@@H](C)CN([C@@H](C)CO)C2=O
→ 9, 0.034, 16, -1.6
#52 C=CC(C)(C)[C@@]12CC(=O)C(=O)N3/C(=C/c4cnc[nH]4)C(=O)N[C@]31N(OC)c1ccccc12
→ 29, 0.32, -17, 0.2
#53 Cc1cc(C(=O)Nc2cccc3c2O[C@H](CN(C)CC2CC2)[C@H](C)CN([C@H](C)CO)C3=O)n(C)n1
→ -5, 0.18, -20, 1.8
#54 C[C@H]1CN([C@@H](C)CO)C(=O)Cc2cc(NC(=O)CCN3CCOCC3)ccc2O[C@@H]1CN(C)S(=O)(=O)c1cccs1
→ -4, 0.023, ?, nt
#55 C[C@H]1CN([C@@H](C)CO)C(=O)Cc2cc(NC(=O)C3CCCCC3)ccc2O[C@H]1CN(C)S(=O)(=O)c1ccc(Cl)cc1
→ 8, 0.26, 27, -1.3
#56 C[C@@H]1CN([C@H](C)CO)C(=O)Cc2cc(NC(=O)NC3CCCCC3)ccc2O[C@@H]1CN(C)Cc1ccc(C(F)(F)F)cc1
→ 5, -0.3, 1, -3.5
#57 C[C@@H]1CN([C@H](C)CO)C(=O)c2cc(NS(=O)(=O)c3cn(C)cn3)ccc2O[C@@H]1CN(C)C(=O)Nc1ccc2c(c1)OCO2
→ -1, 0.17, -7, -0.4
#58 CC(C)NC(=O)Nc1ccc2c(c1)CC(=O)N([C@@H](C)CO)C[C@@H](C)[C@@H](CN(C)S(=O)(=O)c1cn(C)cn1)O2
→ 7, 0.065, -24, -0.5
#59 C[C@@H]1CN([C@H](C)CO)C(=O)c2cccc(NC(=O)Nc3ccc4c(c3)OCO4)c2O[C@@H]1CN(C)CC1CCCCC1
→ -18, 0.8, 37, nt
#60 CC(C)NCC(O)c1ccc(NS(C)(=O)=O)cc1 (stereo not given)
→ -5, -0.36, 27, nt
#61 Cc1cc(C(=O)O)ccc1NC(=O)CNC(=O)C1CCCCC1
→ 0, nt, nt, 3.2
#62 CCOc1ccccc1NC(=O)CSc1nc(N)cc(=O)[nH]1
→ 4, nt, nt, 0.7
#63 C[C@@H]1CCCCO[C@H](CN(C)C(=O)Nc2ccc(F)cc2)[C@@H](C)CN([C@H](C)CO)C(=O)c2cc(NS(=O)(=O)c3ccccc3)ccc2O1
→ 5, -0.074, 14, -0.6
#64 COC(=O)c1ccc(NC(=O)CSc2nnc(-c3ccccc3)n2-c2ccccc2)cc1
→ -2, nt, nt, -0.3
#65 O=C(CSc1nnc(-c2ccncc2)n1-c1ccccc1)c1ccc(Br)cc1
→ 20, nt, nt, -0.7
#66 Cc1ccc(NC(=O)CSc2nc(C)cc(-c3ccccc3)n2)cc1
→ 21, nt, nt, -1.7
